# HPGD inh – qHTS Assay for Inhibitors of HPGD (15-Hydroxyprostaglandin Dehydrogenase). 15-hydroxyprostaglandin dehydrogenase [NAD(+)] (Homo sapiens), P15428. purified HPGD, NADH fluorescence kinetic, PGE2 substrate. Potency, µM, inactives show at the top dose activity change, negative = inhibition, actives largely listed as inhibitors. hit rate 4.3% among 150,000; active = well fitted inhibition curve with a large enough effect (not every such curve was filed as active); inconclusive = small, poorly fitted or top-dose-only effect, or another doubt; inactive = no such curve, though single readings can be large or run the other way;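 note: top concentration of the series not given in the record; plate controls included wells without enzyme; inactives centre near -10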
# Target sequence (P15428 whole entry, looked up): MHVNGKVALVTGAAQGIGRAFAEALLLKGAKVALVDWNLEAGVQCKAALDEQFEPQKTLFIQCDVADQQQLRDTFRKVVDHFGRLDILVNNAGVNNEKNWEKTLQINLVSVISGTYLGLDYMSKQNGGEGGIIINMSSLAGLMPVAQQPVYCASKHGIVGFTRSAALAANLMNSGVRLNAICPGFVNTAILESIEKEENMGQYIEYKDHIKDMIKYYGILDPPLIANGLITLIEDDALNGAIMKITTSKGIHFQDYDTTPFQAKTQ
#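 20 nM HPGD preincubated 15 min at room temperature with compound in 50 mM Tris-HCl pH 8, 0.01% Tween 20. Started with 1 mM NAD+ and 30 uM prostaglandin E2; NADH fluorescence (360/450 nm) read 5 times over 30-s intervals, last minus first.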
# * hit, by the source's call; ? = inconclusive; & = joins results of further samples. % is set by controls: 0 for no effect and ±100 for the full control effect; potency is the fitted concentration of half-maximal effect.
SMILES,HPGD inh
CCC(=O)N(C)CCc1cc2c(c(OC)c1/C=N/NC(=O)c1ccccc1O)OCO2,-5.9%
CN1CCN(CCCNC(=O)Cn2ncc3c4ccccc4n(C)c3c2=O)CC1,-27.8%
CCOC(=O)c1nnc(-c2ccc(C)cc2)nc1Sc1ccccc1Cl,-8.0%
O=C(NCC1COc2ccccc2O1)c1cc2ccccc2o1 (stereo unspecified),-15.0%
Cc1ccc(C(C)C)c(OCCN(C)C)c1,-9.6%
COc1ccc(NC(=O)N2CCC(c3ccccc3)C2)c(OC)c1 (stereo unspecified),-6.8%
O=C(Nc1cccc(NC(=O)c2nccc3ccccc23)c1)c1ccco1,-7.0%
CN(C)c1ccc(NC(=S)N(CCc2ccccc2)C2CC(=O)N(c3c(Cl)cccc3Cl)C2=O)cc1 (stereo unspecified),-15.7%
CSCCC(NC(=O)OC(C)(C)C)C(=O)Oc1ccc2c(=O)c(-c3ccc4c(c3)OCCO4)coc2c1 (stereo unspecified),-16.0%
COc1ccccc1-n1c(N)c(C(N)=O)sc1=S,28.2µM*
Cc1nn(-c2ccccc2)c2sc(C(=O)NNC(=O)COc3ccccc3)cc12,?
COc1ccc(OC)c(NC(=O)CC(NCCC2=CCCCC2)C(=O)O)c1 (stereo unspecified),-12.9%
C#C[C@]1(O)CC[C@@H]2[C@H]3CCc4cc(OC)ccc4[C@@H]3CC[C@@]21C,-2.3%
COc1ccc(C2Oc3ccccc3N2C(C)=O)cc1 (stereo unspecified),-1.7%
CCCCNC(=O)c1cc2c(=O)n3cccc(C)c3nc2n(Cc2ccncc2)c1=N,?
O=C(NCc1ccco1)c1cccc(NS(=O)(=O)c2ccccc2F)c1,-15.4%
Cc1cc(N=Cc2cc(Cl)ccc2O)no1,-8.7%
CCOc1cc(CNC2CCCC2)cc(Cl)c1OCc1ccc(F)cc1,-4.4%
COc1ccc(-c2ccc(-c3noc(-c4ccc(OC)c(OC)c4)n3)c(OC)n2)cc1,?
COc1ccccc1CNC(=O)c1c(N)n(CCCN2CCOCC2)c2nc3ccccc3nc12,?

# Next part; it opens with the 2 that closed the last part.
SMILES,HPGD inh
COc1ccc(-c2ccc(-c3noc(-c4ccc(OC)c(OC)c4)n3)c(OC)n2)cc1,?
COc1ccccc1CNC(=O)c1c(N)n(CCCN2CCOCC2)c2nc3ccccc3nc12,?
COc1ncc2nc(-c3cn(C)c4ccccc34)c(=O)n(Cc3ccc(F)cc3)c2n1,-7.5%
O=C(Cn1c(=O)oc2ccccc21)Nc1nc(-c2ccc(Br)cc2)cs1,-28.6%
O=C(CN1CCN(S(=O)(=O)c2ccccc2)CC1)NC(=O)NC1CCCCC1,-13.4%
Cc1ccc(NC(=O)c2c(C)nc(Nc3nc4ccccc4o3)nc2C)cc1,-13.4%
COc1ccccc1NC(=O)N(CCCN1CCOCC1)Cc1cc2cc3c(cc2[nH]c1=O)OCO3,?
Cc1ccnc2nc(C(=O)Nc3ccc(N4CCOCC4)cc3)nn12,-14.4%
CN1CCN(c2ccc(S(=O)(=O)N3CCCCC3)cc2NC(=O)c2ccc(F)cc2F)CC1,-11.7%
CCn1c(SCc2nc3ccccc3c(=O)[nH]2)nnc1-c1cccnc1,-10.3%
COc1ccc(-n2nnnc2SC(C)C(=O)NCC(=O)Nc2ccc(F)c(F)c2F)cc1 (stereo unspecified),-10.5%
C=CCn1c(SCC(=O)N2CCCC2)nc2cc(C(=O)NCC3CCCO3)ccc2c1=O (stereo unspecified),?
COc1ccc(NC(=O)NCCN2C(=O)C3C4C=CC(C4)C3C2=O)cc1 (stereo unspecified),2.3%
CC(C)c1ccccc1NC1=CC(=O)CC(C)(C)C1,-2.9%
CCOCC(=O)Nc1nnc(Cc2ccc(OC)c(OC)c2)s1,-16.4%
O=C(c1ccccc1)c1cn[nH]c1-c1ccccc1O,-5.8%
COCCNC(=O)c1ccccc1NC(=O)C1COc2ccccc2O1 (stereo unspecified),-5.2%
COc1ccccc1N1CCN(Cc2ccsc2)CC1,-0.4%
CC(C)C1N=C2c3ccccc3N=C(SCc3cc(=O)n4cc(Cl)ccc4n3)N2C1=O (stereo unspecified),?
CCc1ccc(C2C(C#N)=C(N)Oc3n[nH]c(CC(=O)OC)c32)cc1 (stereo unspecified),-9.4%
CCOc1ncccc1C(=O)OCC(=O)Nc1ncc(C(F)(F)F)cc1Cl,-11.9%
CNC(=S)N/N=C/C1=CCC2CC1C2(C)C (stereo unspecified),-2.2%

# Shown as tab-separated lines: three of the compounds above
mol	HPGD inh
C=CCn1c(SCC(=O)N2CCCC2)nc2cc(C(=O)NCC3CCCO3)ccc2c1=O (stereo unspecified)	?
COc1ccc(NC(=O)NCCN2C(=O)C3C4C=CC(C4)C3C2=O)cc1 (stereo unspecified)	2.3%
CC(C)c1ccccc1NC1=CC(=O)CC(C)(C)C1	-2.9%

# (continued)
SMILES,HPGD inh
CC1Cc2ccccc2N1C(=O)CCn1c(=O)oc2ccccc21 (stereo unspecified),-16.7%
COc1ccc(OC)c(NC(=O)c2nnn(CCc3ccccc3)c2N)c1,15.9%
CN1CCN(C2=Cc3ccccc3Sc3cc(F)c(Cl)cc32)CC1,28.2µM*
CCCNC(=O)c1ccc(-c2nc3ccccc3s2)s1,?
C=CCSc1nc(N)c2c(C)c(C)sc2n1,-12.5%
Cc1cccc(Nc2nc3c(c(=O)n(C)c(=O)n3C)n2Cc2ccccc2)c1,-15.9%
COc1ccc(OC)c(C(=O)c2coc3ccc(OC(C)=O)cc23)c1,-9.2%
CCCOn1nnnc1-c1ccccc1,-1.8%
CCOc1[nH]n(-c2ccccc2)c(=O)c1C=Nc1ccc(Cl)cc1,-6.6%
COc1cc([N+](=O)[O-])ccc1NC(=O)CC(C)C,-6.2%
CCOC(=O)c1c(-c2ccc(C)o2)csc1NC(=S)NC(=O)c1ccccc1Br,-19.3%
CC(=O)Nc1ccc(NC(=O)CSc2ccc(C(F)(F)F)cc2[N+](=O)[O-])cc1,-13.7%
CCOC(=O)C1=C(N)N(c2ccccc2Oc2ccccc2)C(=O)C1,3.7%
COc1ccc(-c2c(C)n([O-])c(C)c(C)[n+]2=O)cc1,-7.6%
NC(=O)NNc1ccccc1,-7.9%
COc1ccc(NC(=O)COC(=O)c2cnccn2)cc1Cl,-9.8%
O=C(NCCc1ccccc1)C1CCN(S(=O)(=O)c2ccc(Br)s2)CC1,-8.0%
c1ccc(-c2csc3ncnc(NCC4COc5ccccc5O4)c23)cc1 (stereo unspecified),-13.2%
Cc1cc(C)cc(NC(=O)c2ccc3nc[nH]c3c2)c1,2.6%
O=C(CSc1nnnn1-c1ccc2c(c1)OCO2)NCc1cccs1,-21.2%
Cc1ccc(-n2c(CCc3ccccc3)nnc2SCC(=O)NCc2ccccc2)cc1C,-4.6%
CN(C)S(=O)(=O)c1ccc(C(=O)Nc2ccc(F)cc2F)cc1,-3.5%
C/C(=N\NC(=O)COc1ccc(C#N)cc1)c1ccccc1OC(F)F,-1.4%
O=C(Nc1nccs1)c1cc2c(s1)-c1ccccc1OC2,?
O=C(COC(=O)c1ccc(Cl)c(S(=O)(=O)N2CCCCCC2)c1)Nc1ccccc1,-21.4%
O=c1cc(N2CCc3ccccc32)[nH]c(=O)n1-c1ccccc1,?
CCn1c(CCNC(=O)c2ccc(Cl)c(Cl)c2)nnc1SCCOc1ccc(OC)cc1,-14.2%
COc1ccc(OCC(=O)Nn2c(-c3cccc(OC)c3)nc3ccccc3c2=O)cc1,1.2%
CC(C)OC(=O)CSc1nnc(CNc2nc(-c3ccccc3)cs2)n1C,-5.3%
Cc1cc(OCC(=O)Nc2ccc3oc(-c4ccncc4)nc3c2)ccc1Cl,?
O=C(NCCc1ccncc1)C12CC3CC(CC(C3)C1)C2,-7.5%
O=C(Nc1ccc(Br)cn1)c1cccc(-c2cc3ccccc3oc2=O)c1,?
N#Cc1cc2c(nc1SCC(O)CS(=O)(=O)Cc1ccccc1)CCCC2 (stereo unspecified),-7.8%
C[C@H]1C2=C3C(CC[C@H]4C(OCc5ccc(F)cc5C(F)(F)F)OC[C@](C)([C@@H]34)N(C(=O)OC(C)(C)C)C2)C2COC(=O)OCC21 (stereo partly specified),-14.7%
O=C(c1ccccc1Oc1ccc(C(F)(F)F)cc1[N+](=O)[O-])N1CCOCC1,-13.1%
N#CCSc1nc(Nc2ccc3c(c2)OCO3)c2ccccc2n1,?
CC(=O)c1cn(CC(=O)Nc2ccccc2)c2ccccc12,3.6%
COc1ccc(NC(=O)Cn2nnc(-c3ccccc3F)n2)cc1Cl,-8.7%
Cc1cc(-c2ccco2)n2c(nc3ccccc32)c1C#N,-16.0%
CC(/C=N/n1c(-c2cccnc2)n[nH]c1=S)=C\c1ccccc1,3.16µM*
CCCS(=O)(=O)C(=C1Nc2ccccc2N1)S(=O)(=O)CCC,-4.0%
CCCCCCC1/C(=N/O)CCC1C(=O)OC (stereo unspecified),-0.6%
CSc1nsc(SC)c1NC(=O)OC1CCCCC1,-23.4%
Nc1nnc(-c2cccnc2)s1,-10.7%
CC(=O)[C@H]1CC[C@H]2[C@@H]3C=CC4=CC(=O)CC[C@@]4(C)[C@H]3CC[C@]12C,-6.7%
O=C(CNC(=O)c1cccs1)OCC(=O)c1ccccc1,-12.7%
Cc1nn(C)c(C)c1CNC(=O)c1nn2c(c1Cl)NC(c1cccs1)CC2C(F)(F)F (stereo unspecified),?
CCCCC(=O)NC1(C(F)(F)F)C(=O)N(Cc2ccco2)C(C)=C1C(=O)OC (stereo unspecified),-3.4%
COc1ccc(CCNC(=O)c2cnn3c(C(F)F)cc(C)nc23)cc1OC,-6.5%
Cc1ccc(C(=O)Nc2ccc(S(=O)(=O)O)c3cc(S(=O)(=O)O)cc(S(=O)(=O)O)c23)cc1NC(=O)c1cccc(NC(=O)Nc2cccc(C(=O)Nc3cc(C(=O)Nc4ccc(S(=O)(=O)O)c5cc(S(=O)(=O)O)cc(S(=O)(=O)O)c45)ccc3C)c2)c1,5.5%&-11.6%&-4.1%
CCN1CCC[C@H]1CNC(=O)c1c(O)c(Cl)cc(Cl)c1OC,-8.5%&-8.9%
CC(=O)NC(O)C(=O)c1ccco1 (stereo unspecified),-7.1%
Cc1ccc(-c2c(C)n([O-])c3c([n+]2=O)CCC3)cc1,-24.7%
N#Cc1cccc(-c2cncnc2-n2ccnc2)c1,-10.1%
CCn1c(SCC(=O)c2cc(OC)ccc2OC)nnc1C(C)C,-16.4%
CCOc1ccc(OCC)c(NC(=O)Nc2ccc3c(c2)N(C)C(=O)CS3)c1,-0.5%
COc1cccc(N(C(=O)c2nc3nccc(C)n3n2)c2nc3ccccc3s2)c1,2.8%
CCCCn1c(=O)c(Cc2ccccc2)c(O)c2ccccc21,?
Cc1[nH]c(-c2ccc3c(c2)OCO3)nc1C(=O)O,?
Cc1cc(C)nc(SC2CCOC2=O)n1 (stereo unspecified),-0.2%

# Following part
SMILES,HPGD inh
Cc1ccc(S(=O)(=O)c2cn(Cc3ccc(F)cc3)c3cc4c(cc3c2=O)OCO4)cc1,?
COc1ccc(S(=O)(=O)N[C@@H](Cc2ccc(Cl)cc2)C(=O)N2CC[C@@]3(O)CCCC[C@H]3C2)cc1,-10.3%
CC(Cc1c[nH]c2ccccc12)NC(=O)C1CCCNC1=O (stereo unspecified),-14.4%
N/C(=N\NC(=O)c1cccs1)c1cc2ccccc2oc1=O,1.4%
OCCCNC(=S)Nc1ccc(Oc2ccccc2)cc1,?
O=S(=O)(O)c1ccc2c(N=Nc3c(O)ccc4ccccc34)cccc2c1,-3.8%
O=C(O)CCN1C(=O)NC2(CCCC2)C1=O,4.0%
CC(=O)Oc1ccc2nc(-c3cccs3)oc(=O)c2c1,-29.3%
COc1ccc(CC(=O)Nc2cc(C)c3c(=O)oc4ccccc4c3n2)cc1,-16.6%
COc1ccccc1CNC(=O)C1(c2ccc(Cl)cc2)CC1,-3.8%
CCCCCc1c2c(cc(O)c1C(=O)O)OC(=O)c1c(cc(OC)cc1C(=O)CCCC)O2,-6.6%
CCS(=O)(=O)N1CCN(C(=O)c2ccc(-c3ccccc3)cc2)CC1,-9.0%
CN(C)C(=O)N1CCCC(C(=O)NCc2ccccc2)C1 (stereo unspecified),-6.2%
COc1ccc(S(=O)(=O)NCc2ccc(C(=O)N3CCN(c4ccccn4)CC3)cc2)cc1,-12.5%
COc1ccc(OC)c(-c2cc(C(=O)Nc3sc4c(c3C#N)CCC(C)C4)c3ccccc3n2)c1 (stereo unspecified),-17.9%
CN(C(=O)COC(=O)c1ccc2c(=O)n3c(nc2c1)CCC3)c1ccccc1,-25.0%
CCOC(=O)C1=C(c2ccccc2)NC(SCC(=O)Nc2cccc(C)c2)=C(C#N)C1c1ccco1 (stereo unspecified),?
Cc1ccc2c(c1)-c1c(cnn1CC(=O)NC(C)CCc1ccco1)CO2 (stereo unspecified),-3.4%
COc1ccc(NC2=CC(=O)CC(C)(C)C2)cc1OC,-6.1%
CN(c1ccccc1C(=O)NCc1ccccn1)S(C)(=O)=O,-13.2%
CCc1ccc(CN2CCN(C(=O)c3cccc(OC)c3OC)CC2)cc1,-11.0%
CCC(=O)Nc1nnc(SCC(=O)N2c3ccccc3CC2C)s1 (stereo unspecified),-11.4%
Cc1cc(C)cc(-n2nnnc2SCC(=O)Nc2nc(-c3ccc(Cl)cc3)cs2)c1,-6.5%
O=C(Nc1ccc2c(c1)Cc1ccccc1-2)c1ccncc1,-19.5%
O=C(Oc1ccc([N+](=O)[O-])cc1)c1cccnc1,-12.1%
Cc1ccc(Cc2c(C)nc3nc(SCC(=O)NCCN4CCOCC4)nn3c2C)cc1,-11.4%

# 4 of the entries above in order of their number in HPGD inh, smallest number first:
SMILES,HPGD inh
O=C(Nc1ccc2c(c1)Cc1ccccc1-2)c1ccncc1,-19.5%
CCC(=O)Nc1nnc(SCC(=O)N2c3ccccc3CC2C)s1 (stereo unspecified),-11.4%
CCc1ccc(CN2CCN(C(=O)c3cccc(OC)c3OC)CC2)cc1,-11.0%
Cc1cc(C)cc(-n2nnnc2SCC(=O)Nc2nc(-c3ccc(Cl)cc3)cs2)c1,-6.5%

# Source: PubChem BioAssay

# This is a subset; count on the stated rates, not on these rows.
